Assay outcomes: PubChem BioAssay, National Center for Advancing Translational Sciences (NCATS)
HSD17B inh = HSD17B dehydrogenase inhibition; recombinant HSD17B10, NADH fluorescence kinetic; many of its hits are not listed in these tables; Potency, µM (titrated, usually from 57.1 µM), for inactives: at the top dose activity change, negative = inhibition, usual class: inhibitors; 75,000 compounds, 7.6% hits; AID 893; active = well fitted inhibition curve with a large enough effect; inconclusive = small, poorly fitted or top-dose-only effect; inactive = no such curve, though single readings can be large or run the other way;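 note: the protocol describes HADH2 (HSD17B10) and not the HSD17B4 of the title; nearly all actives have a fitted effect of over 70% in size; most hits overshoot -100% by far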
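His-tagged E. coli-expressed HADH2 at 20 nM in 100 mM Tris-HCl pH 9.0 with 0.01 % Tween-20, preincubated 15 min with compound at room temperature. Reaction with 1 mM NAD+ and 90 uM beta-hydroxybutyryl coenzyme A; NADH fluorescence (360/450 nm) read kinetically over 4 min, last minus first point.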
* marks the source's active call; other numbers are inactive results; [ ] = dose if it differs, or a comment. % is set by controls: 0 for no effect and ±100 for the full control effect; potency is the fitted concentration of half-maximal effect.

Preview (3 entries):
Results for O=[N+]([O-])c1ccc(NCCO)c(OCCO)c1 ?
HSD17B inh: -4%

How did Cc1cccc(OCC(=O)Nc2ccc(N3CCN(S(C)(=O)=O)CC3)cc2)c1 do in these assays?
HSD17B inh: -2%

Results for N#CC[N+]1(Cc2ccccn2)CCCC1 ?
HSD17B inh: -3%[11.4 µM]

The listing, previewed entries included:
Results for O=[N+]([O-])c1ccc(NCCO)c(OCCO)c1 ?
HSD17B inh: -4%

How did Cc1cccc(OCC(=O)Nc2ccc(N3CCN(S(C)(=O)=O)CC3)cc2)c1 do in these assays?
HSD17B inh: -2%

Results for N#CC[N+]1(Cc2ccccn2)CCCC1 ?
HSD17B inh: -3%[11.4 µM]

What do the screens show for `CN(CCc1ccc(Cl)c(Cl)c1)CCN1CCCC1`?
HSD17B inh: -2%

How did CCN(CC)CC(=O)c1c[nH]c2ccccc12 do in these assays?
HSD17B inh: -2%

How did O=C(CCc1nc(-c2ccccc2F)no1)NC1CCN(Cc2ccccc2)CC1 do in these assays?
HSD17B inh: 0%

What do the screens show for `CCOc1ccc(-c2nnc3sc(COc4ccc(Cl)cc4)nn23)cc1`?
HSD17B inh: -11%

Results for N#CCSc1nc2scc(-c3cccs3)c2c(=O)n1CCc1ccccc1 ?
HSD17B inh: inconclusive

Results for Cc1ccc(CC2SC(=O)NC2=O)cc1Cl (centres undefined) ?
HSD17B inh: -4%

What do the screens show for `CCOCCCNC(=O)C(NC(=O)c1cnccn1)c1ccc(OC)cc1` (centres undefined)?
HSD17B inh: 3%

How did COc1ccc(N2CCN(CCCNS(=O)(=O)c3ccc4c(c3)oc(=O)n4C)CC2)cc1 do in these assays?
HSD17B inh: -11%

Results for c1cncc(-c2nc3ccccn3c2Nc2ccc3c(c2)OCCO3)c1 ?
HSD17B inh: -5%

Results for CCOc1ccc(C(N)=O)cc1OC ?
HSD17B inh: -5%

What do the screens show for `Nc1nc(CN2CCN(c3ccccn3)CC2)nc(Nc2ccc(F)cc2)n1`?
HSD17B inh: 1%

Results for CC1CCCCN1C(=O)CSc1ccc(-c2ccc(F)cc2)nn1 (centres undefined) ?
HSD17B inh: 0%

Results for C/C(=C\c1ccco1)C1C(C#N)=C(N)OC2=C1C(=O)CC(C)(C)C2 (centres undefined) ?
HSD17B inh: -23%

How did CCCOc1ccc(C2(C(=O)O)CCCC2)cc1 do in these assays?
HSD17B inh: 9%

Results for O=C(CCN1C(=O)C2C3C=CC(C3)C2C1=O)N1CCN(c2ccc(F)cc2)CC1 (centres undefined) ?
HSD17B inh: 11%

What do the screens show for `CC(=O)NC(Cc1cnc[nH]1)C(=O)O` (centres undefined)?
HSD17B inh: 6%

How did O=C(O)CN(CCOCCOCCN(CC(=O)O)CC(=O)O)CC(=O)O do in these assays?
HSD17B inh: 5%

Results for COc1ccccc1N1CCN(C(=O)CCNS(=O)(=O)c2ccc(Br)s2)CC1 ?
HSD17B inh: -6%

How did COC(=O)C(C)Oc1ccc(=O)[nH]n1 (centres undefined) do in these assays?
HSD17B inh: -6%

Results for COc1ccc(CNC(=O)C2CCCN(S(=O)(=O)c3c(C)nn(C)c3C)C2)cc1 (centres undefined) ?
HSD17B inh: 8%

Results for CCOc1cccc(NC(=O)C(Cc2cccs2)c2nn[nH]n2)c1 (centres undefined) ?
HSD17B inh: 4%

How did CS(=O)(=O)Nc1ccc(S(=O)(=O)N2CCOCC2)cc1 do in these assays?
HSD17B inh: 5%

Results for CCN(CC)S(=O)(=O)c1ccc(F)cc1 ?
HSD17B inh: 3%

What do the screens show for `CCOC(=O)C1CCN(Cc2ccc(O)c(OC)c2)CC1`?
HSD17B inh: 10%

What do the screens show for `CCOC(=O)CSc1nc2ccccc2c(=O)n1CC1CCCO1` (centres undefined)?
HSD17B inh: 0%

How did CCS(=O)(=O)NCCc1csc(-c2cccnc2)n1 do in these assays?
HSD17B inh: -7%

How did COc1ccc(S(=O)(=O)N(CC(=O)N2CCN(c3ccccc3OC)CC2)c2ccccc2)cc1 do in these assays?
HSD17B inh: 4%

Results for Brc1cccc(-c2nc(-c3ccncc3)no2)c1 ?
HSD17B inh: 8%

How did CN1CC(=O)N(CC(=O)Nc2ccc(N(C)C)cc2)c2ccccc2C1=O do in these assays?
HSD17B inh: -2%

How did O=C(CCCCn1c(=O)c2ccccc2n(CC(=O)NC2CCCC2)c1=O)NCc1ccco1 do in these assays?
HSD17B inh: 9%

Results for CCOC(=O)C1CCCN(C(=O)c2cc3c(-c4cccc(OC)c4)nn(C)c3s2)C1 (centres undefined) ?
HSD17B inh: -10%

What do the screens show for `CC(C)CCn1nc(C(=O)OC(C)C(=O)NC(N)=O)c2ccccc2c1=O` (centres undefined)?
HSD17B inh: -3%

How did Cc1ccc(-c2csc3n[nH]c(=S)n23)cc1 do in these assays?
HSD17B inh: inconclusive

Random excerpt: three records from the list.
How did COc1ccc(N2CCN(CCCNS(=O)(=O)c3ccc4c(c3)oc(=O)n4C)CC2)cc1 do in these assays?
HSD17B inh: -11%

Results for N#CCSc1nc2scc(-c3cccs3)c2c(=O)n1CCc1ccccc1 ?
HSD17B inh: inconclusive

Results for c1cncc(-c2nc3ccccn3c2Nc2ccc3c(c2)OCCO3)c1 ?
HSD17B inh: -5%

Further records.
Results for NC[C@@H]1O[C@@H](O[C@H]2[C@@H](O)[C@H](O[C@@H]3[C@H](O)[C@H](N)C[C@H](N)[C@H]3O[C@@H]3O[C@@H](CO)[C@H](O)[C@H](O)[C@@H]3N)O[C@H]2CO)[C@H](N)[C@H](O)[C@@H]1O ?
HSD17B inh: 4%

Results for Cc1ccc(-c2nnc3c4ccccc4c(C)nn23)cc1S(=O)(=O)N1CCN(C)CC1 ?
HSD17B inh: 3%

What do the screens show for `Cc1ccc(CN2C3=NCCCN3c3ccccc32)cc1`?
HSD17B inh: 9%

Results for COc1cccc(NC(=O)C(C)Oc2ccccc2)c1 (centres undefined) ?
HSD17B inh: 0%

How did Cc1c(C(=O)N(C)Cc2ccccc2)oc2ccc(S(=O)(=O)N3CCCC3)cc12 do in these assays?
HSD17B inh: -19%

What do the screens show for `CSc1ccccc1NC(=O)Nc1ccccc1`?
HSD17B inh: 1%

What do the screens show for `COc1ccc(-c2nnc(SC(C)C(=O)Nc3nccs3)n2-c2ccccc2)cc1OC` (centres undefined)?
HSD17B inh: 1%

What do the screens show for `CCCC/C=C/C(NC(=O)C(C)(C)C)c1ccccc1` (centres undefined)?
HSD17B inh: 1%

What do the screens show for `COCCn1nnnc1C1(N(Cc2cc3cc(C)ccc3[nH]c2=O)CC2CCCO2)CCN(C)CC1` (centres undefined)?
HSD17B inh: -7%

How did Cc1cc(C)n(CCO)c(=O)n1 do in these assays?
HSD17B inh: -7%

Results for O=c1[nH]c2ccccc2n1CCCSCCCn1c(=O)[nH]c2ccccc21 ?
HSD17B inh: 3%

Results for COCc1cc(C)nc2sc(C(=O)OC)c(N)c12 ?
HSD17B inh: 1%

Results for CCOC(=O)N1C(=O)c2cc(OC)ccc2S1(=O)=O ?
HSD17B inh: -3%

Results for O=C(C1CCCN(S(=O)(=O)c2cccc3nsnc23)C1)N1CCN(c2ccccn2)CC1 (centres undefined) ?
HSD17B inh: 9%

How did CCc1ccc(C2CC(c3ccccc3)Nc3nc(N)nn32)cc1 (centres undefined) do in these assays?
HSD17B inh: 5%

What do the screens show for `Nc1ncnc2nc(N3CCN(C(=O)c4ccccc4)CC3)[nH]c12`?
HSD17B inh: -1%

How did CCOC(=O)C(Cc1c[nH]c2ccccc12)NC(=O)CNC(C)=O (centres undefined) do in these assays?
HSD17B inh: 4%

What do the screens show for `CC[C@@H](C)[C@H](NC(=O)OC(C)(C)C)c1nnc(S(=O)(=O)Cc2cc(C)ccc2C)o1`?
HSD17B inh: -8%

What do the screens show for `CCCNC(=O)c1ccc(SC)cc1OC`?
HSD17B inh: 8%

Results for CC(C)c1ccc(S(=O)(=O)N2CCN(CCC(=O)Nc3ccc(N(C)C)cc3)CC2)cc1 ?
HSD17B inh: 2%

What do the screens show for `Cc1ccc(NCc2nnc(SCC(=O)c3ccc4c(c3)OCCO4)o2)c(C)c1`?
HSD17B inh: inconclusive

Results for Cc1ccccc1-c1ccc2ncnc(NC3CC3)c2c1 ?
HSD17B inh: 5%

Results for COC(=O)[C@@H]1CC[C@H](C)[C@@H](c2ccc(C)cc2)N1C(=O)c1ccc(/C=N\OC[C@@H](C)[C@H](OCc2ccccc2)C(C)C)cc1 ?
HSD17B inh: -1%[11.4 µM]

Results for Nc1nc(Cn2nnc(-c3ccccc3Cl)n2)nc(N2CCOCC2)n1 ?
HSD17B inh: -9%

What do the screens show for `COC(=O)c1[nH]c2ccccc2c1NC(=O)Oc1ccccc1`?
HSD17B inh: 25µM*

Results for O=C(Cn1[nH]c(=O)c2ccccc2c1=O)NC1CCN(Cc2ccccc2)CC1 ?
HSD17B inh: 7%

What do the screens show for `CCOCCCNC(=O)C(NC(=O)c1ccc2c(c1)OCO2)c1ccc(OC)cc1` (centres undefined)?
HSD17B inh: 9%

Results for CC(C)CN1CCCC2(CCN(C(=O)c3cc(C(F)(F)F)cc(C(F)(F)F)c3)CC2)C1 ?
HSD17B inh: -1%

How did CC1CN(c2nnnn2-c2ccccc2)CC(C)O1 (centres undefined) do in these assays?
HSD17B inh: 8%

What do the screens show for `COC(=O)c1sc(NC(=O)COc2ccccc2OC)nc1C`?
HSD17B inh: 9%

Results for CCOC(=O)c1[nH]c2ccc(OC)cc2c1NC(=O)OC ?
HSD17B inh: 20µM*

What do the screens show for `CCOC(=O)C1CCCN(C(=O)c2ccc(CNc3c(N4CCC(C)CC4)c(=O)c3=O)cc2)C1` (centres undefined)?
HSD17B inh: 0%

How did CCn1c(-c2ccc(F)cc2)n[nH]c1=S do in these assays?
HSD17B inh: -14%

Results for O=c1c(CCc2ccccc2)nc2cnc(N3CCOCC3)nc2n1C[C@H]1CCCO1 ?
HSD17B inh: 20µM*

Results for CCc1ccc(Nc2nc(N)nc(CSc3nnnn3-c3ccccc3)n2)cc1 ?
HSD17B inh: 1%

How did CC(C)CC(=O)Nc1ccc(OCC(=O)O)cc1 do in these assays?
HSD17B inh: 6%

Gathered by group: the entries above containing a thiophene ring, fused or not.
Results for N#CCSc1nc2scc(-c3cccs3)c2c(=O)n1CCc1ccccc1 ?
HSD17B inh: inconclusive

Results for COc1ccccc1N1CCN(C(=O)CCNS(=O)(=O)c2ccc(Br)s2)CC1 ?
HSD17B inh: -6%

Results for CCOc1cccc(NC(=O)C(Cc2cccs2)c2nn[nH]n2)c1 (centres undefined) ?
HSD17B inh: 4%

Results for CCOC(=O)C1CCCN(C(=O)c2cc3c(-c4cccc(OC)c4)nn(C)c3s2)C1 (centres undefined) ?
HSD17B inh: -10%

Results for COCc1cc(C)nc2sc(C(=O)OC)c(N)c12 ?
HSD17B inh: 1%

The list continues.
Results for CCOC(=O)c1ccccc1NC1OC(=O)c2ccccc21 (centres undefined) ?
HSD17B inh: 25µM*

What do the screens show for `CC(OC(=O)CNC(=O)C12CC3CC(CC(C3)C1)C2)C(=O)Nc1ccc(N2CCOCC2)cc1` (centres undefined)?
HSD17B inh: 1%

What do the screens show for `CCN(CCCNC(=O)CCNC(=O)Cn1cnc2ccccc2c1=O)c1cccc(C)c1`?
HSD17B inh: -6%

How did Cc1nn(-c2ccc(F)cc2)c2sc(C(=O)OCC(=O)N3CCC(C)CC3)cc12 do in these assays?
HSD17B inh: 32µM*

How did CC(=O)N1c2ccccc2NC2=C(C(=O)CCC2)C1c1cccnc1 (centres undefined) do in these assays?
HSD17B inh: 25µM*

What do the screens show for `C/C=C/c1ccc(OC)c(OC(C)=O)c1`?
HSD17B inh: 3%

What do the screens show for `COc1ccccc1NC(=O)c1c(NC(=O)c2ccco2)sc2c1CCC2`?
HSD17B inh: 10µM*

What do the screens show for `CC(=O)Nc1ccc(Cl)cc1C(=O)O`?
HSD17B inh: inconclusive

How did O=C(O)[C@@H]1CSC2(CCSC2)N1 (some centres undefined) do in these assays?
HSD17B inh: 9%

What do the screens show for `CCC(CC)C(=O)Nc1cc(C(=O)OC)cc(C(=O)OC)c1`?
HSD17B inh: 0%

Results for COc1ccc(CCNC(=O)CC2Nc3ccccc3NC2=O)cc1 (centres undefined) ?
HSD17B inh: 25µM*

Results for CCC1(C)Cc2c(sc3c2c(=O)n(C)c2nnc(SCCc4ccccc4)n32)CO1 (centres undefined) ?
HSD17B inh: 8%

What do the screens show for `COc1ccc(CN2CCN(C(=O)c3cc(OC)c(OC)c(OC)c3)CC2)cc1OC`?
HSD17B inh: 12%

What do the screens show for `CCOC(=O)C1=C(C)N(C)C(=O)NC1c1ccc(C)s1` (centres undefined)?
HSD17B inh: 14%

Results for O=c1cc(CSc2nnc(COc3ccccc3Cl)o2)nc2sccn12 ?
HSD17B inh: -11%

Results for O=Cc1ccc(Cl)cc1 ?
HSD17B inh: -1%

How did COc1ccccc1C(=O)N(CN1CCCC1=O)c1cccc(Cl)c1 do in these assays?
HSD17B inh: 1%

What do the screens show for `CCn1c(C(=O)N2CCC(Cc3ccccc3)CC2)cc2sccc21`?
HSD17B inh: 6%

What do the screens show for `CCOC(=O)C1=C(N)N2C(=O)C(C)SC2=C(C(=O)OC)C1c1ccccc1OC` (centres undefined)?
HSD17B inh: -9%

How did COc1ccc2oc(C)c(C(N)=O)c2c1 do in these assays?
HSD17B inh: -4%

Results for O=C(O)C1CCCCC1C(=O)Nc1ccc2c(c1)OCCO2 (centres undefined) ?
HSD17B inh: 7%

What do the screens show for `CCOC(=O)C1=C(CN2CCN(c3ccc(F)cc3)CC2)NC(=O)NC1c1cccs1` (centres undefined)?
HSD17B inh: -10%

Some of the compounds tested; rates above refer to the full screens.
